ALR inh: human ALR oxidase inhibition via reduced H2O2; purified ALR, DTT oxidation, H2O2 HRP-luminol luminescence; AID 485317; P55789; inhibition, % (no concentration beside the values); actives 3.8% (n = 290,000);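 active = mean and each replicate at 75% or more; inconclusive = only one of the two met; inactive = neither met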;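 note: stock transfer was 7.5 nL into about 7.5 µL; 0% = neutral wells and 100% = wells with inactivated enzyme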
Target sequence (P55789 whole entry, looked up): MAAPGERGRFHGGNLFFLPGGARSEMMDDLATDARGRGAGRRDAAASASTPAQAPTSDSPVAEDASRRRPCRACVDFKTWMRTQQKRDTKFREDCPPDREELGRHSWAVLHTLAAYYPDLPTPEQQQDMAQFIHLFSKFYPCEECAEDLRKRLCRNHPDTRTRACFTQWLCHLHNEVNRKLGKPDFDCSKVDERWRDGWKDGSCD
Vif A3G: HIV-1 Vif–A3G interaction blockers – biochemical, TR-FRET, GST-Vif 1-94, biotin-A3G peptide, dose response retest, primary screen (AID 1117319); TR-FRET GST-Vif / biotin-A3G peptide binding; higher % means a stronger effect; test concentration not given here; strong numbers were not always called active; inhibition, %; hits with a dose series show IC50 in µM; actives 0.57% (n = 260,000);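 active = above the screen mean plus three standard deviations and confirmed in dose response; inconclusive = results disagree or hit not tested in dose response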;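 note: Vif residues 1-94 fused to GST binding biotinylated APOBEC3G peptide 110-148; 0% = full assay without inhibitor and 100% = GST in place of GST-Vif; retest series ran down from 100 µM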
Ecoli rRNA inh: inhibits bacterial ribosomal RNA function over humanized ribosomes; E. coli WT GFP vs humanized-ribosome RFP mutants, fluorescence, 24 h; active compounds read low; DMSO median 0, no signal -100; GFP signal change (wild-type ribosome), % (no concentration beside the values); actives 1.6% (n = 350,000);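 active = significant combined selectivity score with lowered wild-type GFP, culture density cut under 30%, mutant RFP and density less affected; inactive = any of these conditions unmet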; note: one replicate is shown; some compounds called inactive have numbers as strong as hits
Ecoli growth: E. coli growth inhibition; Escherichia coli growth, OD600, 23 h; active compounds read low; OD600 absorbance (test concentration not listed); actives 0.21% (n = 330,000);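 active = OD600 absorbance below the run mean of sample wells minus 3.6 SD, in any replicate, cut at about 0.56 in these data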;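 note: stock transfer was 300 nL into about 60 µL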
AF4-AF9 inh: inhibitors of human MLL-AF4/AF9 interaction. P42568. actives 0.47% (n = 350,000). AID 651704. inhibition, % at 10 µM. AlphaScreen, biotin-AF4 peptide binding to FLAG-AF9;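 active = every replicate reaching a set inhibition limit, whatever the replicate mean, cut at about 25% in these data; inconclusive = mean inhibition reaches that limit but some replicates miss it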;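 note: 0% = plate neutral control median and 100% = total signal loss; the record names both 10 and 1 µM as test concentration; the first replicate is given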
Target sequence (P42568 whole entry, looked up): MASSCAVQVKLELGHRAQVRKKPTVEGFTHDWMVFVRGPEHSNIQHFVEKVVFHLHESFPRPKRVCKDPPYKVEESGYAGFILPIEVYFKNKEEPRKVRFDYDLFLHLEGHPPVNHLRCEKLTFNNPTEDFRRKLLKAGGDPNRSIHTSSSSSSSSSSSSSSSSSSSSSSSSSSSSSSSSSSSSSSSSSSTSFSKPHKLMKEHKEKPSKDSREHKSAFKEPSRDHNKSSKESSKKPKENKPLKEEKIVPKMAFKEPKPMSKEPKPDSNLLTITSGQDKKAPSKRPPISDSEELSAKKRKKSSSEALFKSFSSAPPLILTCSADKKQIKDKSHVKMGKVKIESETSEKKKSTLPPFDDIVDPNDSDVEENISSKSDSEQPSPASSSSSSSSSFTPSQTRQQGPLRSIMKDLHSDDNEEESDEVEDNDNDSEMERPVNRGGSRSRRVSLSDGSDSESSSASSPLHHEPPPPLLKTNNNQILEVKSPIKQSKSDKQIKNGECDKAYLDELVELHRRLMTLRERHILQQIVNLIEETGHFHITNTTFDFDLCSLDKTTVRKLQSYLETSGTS
HNF4A DNA FP: change in binding of human HNF4 alpha to DNA. P41235. HNF4a-FITC DNA binding, fluorescence polarization, 1 h. activity change, % at 10 µM. actives 0.3% (n = 360,000); in the data active = activity change above about 30%, passing the limit was not always enough;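 note: controls were the assay level and a saturating level of protein; the project sought stronger binding though the title names inhibitors; some compounds called inactive have numbers as strong as hits; positive values seem to mean higher polarization but the record does not say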
FGF22 binding: binders of recombinant human FGF22 by thermal shift. Q9HCT0. SYPRO orange fluorescence; percent of sucrose octasulfate shift, DMSO zero. calls only at 9.99 µM. actives 1.5% (n = 340,000);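 active = melting point raised past a set limit in the mean and every replicate; inconclusive = no clear call; three in four hits are not shown here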
Target sequence (Q9HCT0 whole entry, looked up): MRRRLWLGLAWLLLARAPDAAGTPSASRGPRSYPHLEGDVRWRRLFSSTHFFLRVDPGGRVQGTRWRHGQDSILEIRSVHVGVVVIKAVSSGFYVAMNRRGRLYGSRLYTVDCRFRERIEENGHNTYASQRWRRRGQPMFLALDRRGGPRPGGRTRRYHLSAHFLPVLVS
Ecoli rRNA inh OD600: recorded beside Ecoli rRNA inh, whose call it bears; OD600 change, %; measured here: OD600 growth;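 optical density of the mix in the first replicate; 0 = DMSO median and -100 = no signal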
Ecoli rRNA inh RFP: second read-out of Ecoli rRNA inh, no call of its own (marks repeat the call); RFP signal change, %; measured here: RFP humanized mutant strains;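 first replicate; 0 = DMSO median and -100 = no signal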
The depositor's hits bear a star; i = inactive; ? = inconclusive; nt = not tested or not shown.

SMILES	ALR inh	Vif A3G	Ecoli rRNA inh	Ecoli rRNA inh OD600	Ecoli rRNA inh RFP	Ecoli growth	AF4-AF9 inh	HNF4A DNA FP	FGF22 binding
O=C(CCN1CCCCC1)NCC[C@H]1CC[C@@H](NC(=O)C2CCC2)[C@@H](CO)O1	nt	nt	1	6	0.4	nt	-0.4	nt	i
CO[C@H]1CN(C)C(=O)c2cc(C#N)ccc2OCC[C@@H]2CC[C@@H](OC)[C@H](CN(C)C(=O)[C@H]1C)O2	nt	nt	-1	1	-2.6	nt	1.7	nt	i
O=C(NCCN1CCOCC1)c1ccc2c(c1)N(Cc1ccccc1F)C(=O)c1ccccc1S2(=O)=O	-20	-7%	-2	3	1.6	0.7	1.3	-0.8	i
CC(C)CN(C(=O)Cn1c(C(F)(F)F)nc2ccccc21)c1c(N)n(Cc2ccccc2)c(=O)[nH]c1=O	nt	nt	3	8	-1.9	0.69	0.1	-0.4	i
CCCCNC(=S)N=Nc1c(O)[nH]c2ccccc12	1	2%	-25	-26	-2.2	0.64	-8.0	-1.9	i
O=C(NCc1ccccc1F)C1CCCN1C(=O)NC1CCCCC1 (centres undefined)	3	-6%	nt	nt	nt	0.68	nt	1.2	nt
C[C@@H]1CN([C@H](C)CO)C(=O)c2cc(NS(=O)(=O)c3cn(C)cn3)ccc2O[C@@H](C)CCCCO[C@H]1CN(C)CC1CCCCC1	nt	nt	4	-2	1.3	nt	-5.7	nt	i
COc1ccc(NC(=O)N2CCCC2C(=O)NCc2cccs2)cc1 (centres undefined)	-8	nt	4	7	-2.1	0.67	?	-3.2	i
COc1ccccc1-c1ccc([C@@H]2[C@@H](C#N)N(C(=O)c3cccnc3)[C@@H]2CO)cc1	nt	nt	-1	-6	0.8	nt	6.7	nt	i
O=C(C[C@@H]1C/C=C\C[C@H](Cc2ccc(F)cc2)C(=O)OC[C@H]2CCCN2C1=O)NCCO	nt	4%	7	12	4.6	0.7	-2.5	-3.1	i
CC(=NCc1ccco1)c1c(C(F)(F)F)[nH]n(-c2nc3ccccc3s2)c1=O	92*	1%	-7	3	-1.8	0.73	nt	0.9	nt
O=C(Nc1ccc(F)cc1)N[C@@H]1C=C[C@H](CC(=O)N2CCCCC2)O[C@H]1CO	nt	nt	2	5	-1.1	nt	0.0	nt	i
CCOC(=O)c1sc(N=NC2=C(O)CC(C)(C)CC2=O)c(C(=O)OCC)c1C	9	-2%	nt	nt	nt	0.71	0.0	15	i
CCN(CC)Cc1c(CC(C)C)oc(C)c1C(=O)O	-8	5%	nt	nt	nt	0.7	nt	-1.7	nt
Cc1nc2ccccc2c(N)c1C(=O)/C=C/c1ccccc1	nt	7%	2	8	-2.0	0.63	3.1	0.1	i
Cc1ccc2cc(CN(CCN3CCCC3)C(=O)Nc3ccc(F)cc3)c(=O)[nH]c2c1C	1	-4%	nt	nt	nt	0.69	nt	3.5	nt
CCc1sc(NC(=O)c2cc3ccccc3oc2=O)nc1-c1cccs1	3	5%	4	3	-2.5	0.72	-0.7	0.5	i
Cc1cc(NC(=O)CCC(=O)N(c2ccccc2)C2(C(=O)NC3CCCCC3)CCCC2)no1	-11	0%	nt	nt	nt	0.69	nt	2.0	nt
N#C[C@@H]1[C@H](c2ccccc2)[C@H](CO)N1C(=O)C1CCCC1	nt	nt	5	14	-4.0	nt	-2.8	nt	i
C[C@@H]1CCCCO[C@H](CN(C)S(=O)(=O)c2ccc(F)cc2)[C@@H](C)CN([C@@H](C)CO)C(=O)c2cc(NC(=O)Nc3cccc4ccccc34)ccc2O1	nt	nt	2	0	-0.4	nt	-2.9	nt	i
O=C(c1ccc(F)c(F)c1)N1CCCc2ccccc21	-3	nt	-22	-19	-5.3	0.68	-3.9	-1.9	i
CC1=CC(c2ccccc2)n2nc(N3C(=O)C4CC=CCC4C3=O)nc2N1 (centres undefined)	7	-3%	nt	nt	nt	0.69	nt	0.7	nt
COc1ccccc1C#Cc1ccc([C@@H]2[C@@H](C#N)N(C(=O)C3CC3)[C@H]2CO)cc1	nt	nt	1	-2	-0.7	nt	0.0	nt	i
COCCn1c(=NC(=O)CSC(C)=O)sc2cc(OC)ccc21	98*	2%	-3	-2	1.1	0.73	7.9	0.5	i
NS(=O)(=O)c1ccc(CCNC(=O)c2nc(CS(=O)(=O)c3ccc(Cl)cc3)no2)cc1	-6	-2%	1	6	2.3	0.66	0.6	2.0	i
Cc1ccc(S(=O)(=O)N(Cc2ccc(C(F)(F)F)cc2)C(=O)N2CCN(C)CC2)cc1	-7	-10%	7	13	-1.5	0.7	0.8	0.2	i
O=C(CSc1nccc(=O)[nH]1)Nc1ccc(Oc2ccccc2)cc1	-7	nt	5	8	1.4	0.65	-0.1	-1.6	i
C[C@@H]1CN([C@@H](C)CO)C(=O)c2cc(C#CC3CCCC3)cnc2O[C@H]1CN(C)Cc1ccncc1	nt	nt	-3	-5	0.1	nt	7.8	nt	i
CCOC(=O)CSc1nc(C)cc(Oc2ccc(=O)n(C)n2)n1	-8	-8%	14	15	-0.5	0.74	-7.1	1.7	i
CCOC(=O)N1CCN(C(=O)CCN2C(=O)/C(=C\c3ccccc3OC)SC2=S)CC1	-1	nt	nt	nt	nt	0.73	nt	0.7	nt

Full records as entered above. Screens in order: ALR inh | Vif A3G | Ecoli rRNA inh | Ecoli rRNA inh OD600 | Ecoli rRNA inh RFP | Ecoli growth | AF4-AF9 inh | HNF4A DNA FP | FGF22 binding
CC1=CC(c2ccccc2)n2nc(N3C(=O)C4CC=CCC4C3=O)nc2N1 (centres undefined) in the list: 7 | -3% | nt | nt | nt | 0.69 | nt | 0.7 | nt
COc1ccccc1C#Cc1ccc([C@@H]2[C@@H](C#N)N(C(=O)C3CC3)[C@H]2CO)cc1 in the list: nt | nt | 1 | -2 | -0.7 | nt | 0.0 | nt | i

Following part
SMILES	ALR inh	Vif A3G	Ecoli rRNA inh	Ecoli rRNA inh OD600	Ecoli rRNA inh RFP	Ecoli growth	AF4-AF9 inh	HNF4A DNA FP	FGF22 binding
Cc1ccc2nc(-c3cccc(Br)c3)c(Cc3cccc(Cl)c3)n2c1	nt	nt	nt	nt	nt	nt	-1.3	5.9	i
CCOc1ccccc1NC(=O)CSc1ccc(-c2ccco2)nn1	13	6%	-21	-20	-3.6	0.69	-4.1	-0.5	i
Cc1cccc(NCc2ccccc2O)c1	99*	13%	nt	nt	nt	0.7	nt	0.8	nt
O=C(CNC(=O)c1ccccc1F)NNC(=O)c1ccccc1O	nt	-6%	3	8	-2.3	0.58	-1.8	1.9	i
COc1cc(C2C(C(C)=O)=C(C)Nc3ncnn32)ccc1O (centres undefined)	46	-1%	nt	nt	nt	0.74	nt	-1.1	nt
Cc1ccc2nc3c(cc2c1)c(NC(=O)c1ccco1)nn3CC(C)C	8	0%	14	5	1.1	0.66	1.0	-0.3	i
CCOC(=O)C1CCN(c2c(NCCCN(CC)c3ccccc3)c(=O)c2=O)CC1	90*	23%	nt	nt	nt	0.71	nt	-1.1	nt
Cc1cc(C(=O)NC2CC(C)(C)Cc3c2cnn3-c2ccc(F)cc2)no1 (centres undefined)	-1	nt	-14	-9	-1.9	0.7	2.8	-0.3	i
COC(=O)c1c[nH]n2c(=O)c(C(C)C)c(C)nc12	1	?	13	0	-4.6	0.62	-1.1	-7.0	i
Cc1ccc(NS(=O)(=O)c2ccc(NC(=O)c3ccccc3C(=O)O)cc2)c(C)c1	6	nt	-7	2	-1.4	0.65	-0.3	2.4	i
CCOCc1c(C(=O)Nc2ccc3nc(N4CCOCC4)sc3c2)oc2ccccc12	nt	nt	-2	10	0.9	0.7	4.9	0.2	i
O=C1C2C(C(=O)N1/N=C/c1cc(Br)cc([N+](=O)[O-])c1O)C1C=CC2C12CC2 (centres undefined)	0	8%	nt	nt	nt	nt	nt	-1.0	nt
O=c1c2ccccc2nc(-c2ccco2)n1Cc1ccccc1	-1	5%	nt	nt	nt	0.66	nt	4.9	nt
CC(=O)Nc1ccc(OCC=C(Cl)Cl)cc1	3	31%	nt	nt	nt	0.64	nt	-0.3	nt
O/N=C/c1cn(-c2ccc(Cl)cc2)nn1	-13	1%	14	5	1.0	nt	-1.0	-2.1	i
Cc1ccc(C)c(NC(=S)N2CCC(NC(=O)c3ccco3)CC2)c1	-34	nt	2	14	0.5	0.64	-3.4	-3.4	i
O=C(NCc1ccc2c(c1)OCO2)c1cccc(F)c1	-4	-1%	nt	nt	nt	0.76	nt	0.1	nt
CCN(CC)c1ccc(NC(=O)c2cccc(F)c2)c(C)c1	99*	9%	nt	nt	nt	0.66	nt	-0.7	nt
COC(=O)C1=C(C)N=C2SC(C#N)=C(N)N2C1c1ccc(OCc2ccccc2)cc1 (centres undefined)	-7	0%	nt	nt	nt	0.76	nt	4.3	nt
O=C(OCn1nnc2ccccc2c1=O)c1ccc(S(=O)(=O)N2CCOCC2)cc1	-2	-2%	nt	nt	nt	0.77	nt	-5.0	nt
COc1cccc(NC(=O)CCC(=O)N2CC(C)Oc3ccc(C)cc32)c1 (centres undefined)	-3	nt	4	6	1.6	0.73	-10	-0.1	i
COc1ccc(C(=O)CCNc2ccc(F)cc2)cc1	-10	-5%	23	17	0.8	0.66	1.7	1.0	i
C[C@H]1CN([C@@H](C)CO)C(=O)c2cc(NC(=O)CCN3CCOCC3)ccc2O[C@@H]1CN(C)C(=O)Nc1ccc(F)cc1	nt	nt	5	9	-0.9	nt	-1.1	nt	i
O=C(CCN1CCCCC1)NCC[C@H]1CC[C@H](NC(=O)C2CCCC2)[C@H](CO)O1	nt	nt	5	14	3.6	nt	5.0	nt	i
COCCCNC(=O)c1ccc(Cn2c(=O)c3ccccc3n(CC(=O)NCCc3ccc(OC)c(OC)c3)c2=O)cc1	-14	0%	14	6	-5.7	0.66	-0.7	2.2	i
Cn1c(COc2ccccc2)nnc1SCc1cc(=O)[nH]c2ccccc12	nt	3%	nt	nt	nt	0.7	nt	0.6	nt
O=C(COc1ccc(F)cc1)N(Cc1ccc(Cl)cc1)C1CCS(=O)(=O)C1 (centres undefined)	-7	-4%	-10	-15	1.0	0.68	-0.6	2.0	i
C[C@@H]1CN([C@@H](C)CO)C(=O)c2cccc(NC(=O)C3CCCCC3)c2O[C@H]1CN(C)C(=O)Nc1cccc2ccccc12	nt	nt	1	0	-1.6	nt	-0.1	nt	i
CO[C@@H]1CN(C)C(=O)c2ccc(NC(=O)C3CC3)cc2OC[C@H](C)N(Cc2ccccc2)C[C@@H]1C	nt	nt	-1	6	-1.4	nt	-4.8	nt	i
C/C(=N\NC(=O)c1ccc(=O)[nH]n1)c1cccnc1	25	4%	nt	nt	nt	nt	nt	-3.7	nt
C/C(CC(=O)NCc1ccco1)=N\NC(=O)c1ccc(Cl)cc1Cl	-3	nt	7	-2	-1.8	nt	-1.6	0.4	i
CCN(CC)C(=O)CN(C#N)c1nc(OC)nc(N(C)C)n1	nt	-9%	nt	nt	nt	0.67	nt	-3.6	nt
Cc1ccc(S(=O)(=O)Nc2ccc3c(c2)CC(=O)N([C@@H](C)CO)C[C@H](C)[C@H](CN(C)CC2CC2)O3)cc1	nt	nt	1	8	-2.1	nt	-0.2	nt	i
COc1cc2[nH]c(=O)n(CCC(=O)N3CCc4ccccc4C3)c(=O)c2cc1OC	-17	-5%	nt	nt	nt	0.7	nt	-2.6	nt
C=CCN1C(=O)C2(OCCO2)c2cc(C)ccc21	-11	-1%	4	2	1.4	0.67	4.6	6.2	i
Cc1ccc(NC(=O)c2cccc(S(C)(=O)=O)c2)cc1	nt	nt	8	6	-3.1	0.69	-6.2	3.2	nt
CN(C)c1ccc(C2OC(=O)C3(CCCC3)C(=O)C2(C)C)cc1 (centres undefined)	94*	5%	nt	nt	nt	0.67	nt	4.2	nt

High-throughput results as filed in PubChem BioAssay.

Not all compounds are listed; count on the stated rates, not on these rows.
